Source: PubChem BioAssay (National Center for Advancing Translational Sciences (NCATS))
2A StopGo – High Throughput Screening for Foot and Mouth Disease Virus Antivirals; human cells with a luciferase reporter of 2A StopGo recoding; control for the full effect not named in the record; Potency, µM (top dose mostly 57.9 µM), for inactives: at the top dose signal change, negative = less light; 1.2% of 410,000 active; active = well fitted falling curve with a large enough effect; inconclusive = small, poorly fitted or top-dose-only effect; inactive = no such curve, though single readings can be large or run the other way; tested in HEK293T cells; further: on the % scale 0 is the no-effect control and ±100 the full control effect; nearly all actives have a fitted effect of over 45% in size; luciferase light after 4 h
Cruzain inh noDet – qHTS Assay for Promiscuous and Specific Inhibitors of Cruzain (without detergent); Cruzipain (Trypanosoma cruzi), P25779; purified cruzain, Z-FR-AMC fluorescence, no detergent; Potency, µM, without a hit: max response, negative = inhibition, actives largely listed as inhibitors; 2.3% of 200,000 active; active means well fitted curve in the direction sought with a large enough effect; inconclusive means small, poorly fitted or top-dose-only effect, or another doubt; inactive means no such curve, though single readings can be large; an effect the other way counts as inactive or inconclusive;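 further: plate controls were enzyme without inhibitor for no effect and buffer without enzyme for full effect; nearly all actives have a fitted effect of over 40% in size; top concentration of the series not given in the record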
Target sequence (P25779 123-467 limits assumed): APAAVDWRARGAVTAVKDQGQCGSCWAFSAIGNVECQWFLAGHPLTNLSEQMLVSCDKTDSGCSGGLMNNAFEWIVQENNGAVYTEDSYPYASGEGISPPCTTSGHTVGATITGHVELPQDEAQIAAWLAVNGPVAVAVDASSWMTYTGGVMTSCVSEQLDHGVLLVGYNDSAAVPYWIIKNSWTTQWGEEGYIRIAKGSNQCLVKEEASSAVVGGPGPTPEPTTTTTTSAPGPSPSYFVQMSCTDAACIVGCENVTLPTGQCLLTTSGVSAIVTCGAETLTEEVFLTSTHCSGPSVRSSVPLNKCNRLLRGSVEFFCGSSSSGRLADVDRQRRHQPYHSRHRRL
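Detergent-free condition (0.00005% Triton X-100) in acetate buffer pH 5.5 with DTT. 1.5 nM enzyme and compound were pre-mixed 15 min, then 2 uM Z-FR-AMC substrate added; reaction progress from fluorescence change between first and third reads (60 s).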
LASV entry inh – qHTS for Inhibitors of binding or entry into cells for Lassa Virus. AID 540256, 2011. Potency, µM (titrated, usually from 37.9 µM), for inactives: at the top dose activity change, negative = inhibition, most hits filed as inhibitors. Lassa virus pseudotype entry inhibition, cell reporter; control for the full effect not named in the record. 1.2% of 300,000 active; active means well fitted inhibition curve with a large enough effect; inconclusive means small, poorly fitted or top-dose-only effect, or effect the other way; inactive means flat fitted curve, though single readings scatter; tested in HEK293 cells; further: on the % scale 0 is the no-effect control and ±100 the full control effect; nearly all actives have a fitted effect of over 50% in size; luciferase read-out
Cruzain Triton – qHTS Assay for Promiscuous and Specific Inhibitors of Cruzain (with detergent); 0.43% of 200,000 active; Potency, µM, inactives show max response, negative = inhibition, actives largely listed as inhibitors; AID 1478, 2009; Cruzipain (Trypanosoma cruzi), P25779; purified cruzain, Z-FR-AMC fluorescence, 0.01% Triton; active means well fitted curve in the direction sought with a large enough effect; inconclusive means small, poorly fitted or top-dose-only effect, or another doubt; inactive means no such curve, though single readings can be large; an effect the other way counts as inactive or inconclusive;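 further: plate controls were neutral wells for no effect and buffer without enzyme for full effect; nearly all actives have a fitted effect of over 40% in size; top concentration of the series not given in the record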
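In this qHTS format, compounds are incubated with 1.5 nM cruzain for 15 min at room temperature before 2 uM Z-FR-AMC is added. Release of AMC is followed at 360/450 nm, and progress is taken as the 60 s fluorescence difference.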
MARV entry inh – qHTS for inhibitors of binding or entry into cells for Marburg Virus. Marburg virus pseudotyped entry inhibition, cell reporter; control for the full effect not named in the record; about a third of the inactives were read at about 46 µM. Potency, µM (titrated, usually from 37.8 µM), without a hit: top-dose activity change, negative = inhibition, actives largely listed as inhibitors. 1.8% of 300,000 active; active = well fitted inhibition curve with a large enough effect; inconclusive = small, poorly fitted or top-dose-only effect, or effect the other way; inactive = flat fitted curve, though single readings scatter; tested in HEK293 cells; about a fifth of its hits are not listed in these tables; further: on the % scale 0 is the no-effect control and ±100 the full control effect; luciferase read-out
NS1 inh – qHTS Assay for Inhibitors of Influenza NS1 Protein Function | Potency, µM (highest dose often 46.1 µM), without a hit: top-dose activity, positive = more growth | S. cerevisiae slowed by influenza A NS1, growth recovery by OD600 | AID 2326, 2010 | 0.4% of 270,000 active; further: actives are rising curves; nearly all actives have a fitted effect of over 50% in size
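OD600 was taken as the measure of yeast growth restored by compound in an NS1-expressing S. cerevisiae strain. Cells had been washed out of glucose medium and diluted 1:100 into galactose -URA medium, pH 6.0.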
SARS PLP yeast – qHTS of Yeast-based Assay for SARS-CoV PLP | Potency, µM (doses to about 32.9 µM), for the others: top-dose activity, positive = growth rescue | AID 485353, 2010 | 0.19% of 330,000 active | S. cerevisiae expressing SARS-CoV PLpro, growth rescue; control for the full effect not named in the record; further: 0% is about no effect; nearly all actives have a fitted effect of over 55% in size; growth read by luminescence after 48 h
RE007 growth inh – qHTS Assay for Inhibitors of the HIV-1 protein Vpr. S. pombe RE007 Vpr strain, BacTiter-Glo ATP luminescence, 24 h; control for the full effect not named in the record. Potency, µM (series often up to 92.2 µM), without a hit: at the highest dose activity change, negative = less growth. 0.21% of 360,000 active; active = well fitted falling curve with a large enough effect; inconclusive = small, poorly fitted or top-dose-only effect; inactive = no such curve, though single readings can be large or run the other way;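 further: on the % scale 0 is the no-effect control and ±100 the full control effect; nearly all actives have a fitted effect of over 50% in size; the assay follows cell death caused by Vpr and the record does not say whether a fall means rescue or toxicity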
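Fission yeast strain RE007, carrying one chromosomally integrated HIV-1 vpr copy, was seeded at OD 0.01 in PMG+AL medium with 23 nL pinned compound. After 24 h at 30 °C and 99% humidity, viability was read by BacTiter-Glo luminescence.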
An asterisk follows results filed as active; ? = inconclusive; nt = no result given; & = joins results of further samples; [ ] = another dose, or the depositor's remark. Unless noted, the call rests on the fitted dose curve; in most records, active means well fitted rising curve with a large enough effect; inconclusive means small, poorly fitted or top-dose-only effect; inactive means no such curve, though single readings can be large or run the other way. Potency means the concentration at half of the fitted maximal effect.

The opening 2 records as a preview:
SMILES | 2A StopGo | Cruzain inh noDet | LASV entry inh | Cruzain Triton | MARV entry inh | NS1 inh | SARS PLP yeast | RE007 growth inh
COc1ccc(/C=C/C(=O)NCC(=O)N/N=C(/CCC(=O)O)c2ccccc2)cc1 | -20% | nt | 12% | nt | 2%[46.1 µM] | 1% | -2% | 5%
CC1CCCCN1Cc1c(O)ccc2c(=O)c(-c3nc4ccccc4s3)c(N)oc12 (stereo not given) | ? | -13% | ? | -28% | 2.5µM* | -8% | 14% | -9%

The list itself, repeating the preview:
SMILES | 2A StopGo | Cruzain inh noDet | LASV entry inh | Cruzain Triton | MARV entry inh | NS1 inh | SARS PLP yeast | RE007 growth inh
COc1ccc(/C=C/C(=O)NCC(=O)N/N=C(/CCC(=O)O)c2ccccc2)cc1 | -20% | nt | 12% | nt | 2%[46.1 µM] | 1% | -2% | 5%
CC1CCCCN1Cc1c(O)ccc2c(=O)c(-c3nc4ccccc4s3)c(N)oc12 (stereo not given) | ? | -13% | ? | -28% | 2.5µM* | -8% | 14% | -9%
CC(=O)c1ccc(N2CCN(CC(=O)NCc3ccccc3)CC2)cc1 | -19% | nt | nt | nt | nt | 0% | 0% | -9%
Cc1nc(NC(=O)c2ccccc2)nc2cc3c(cc12)OCO3 | 9% | 3% | ? | -1.9% | ? | 5% | -9% | nt
O=C(CCC(=O)N1CCN(c2ccc(O)cc2)CC1)c1cccs1 | 42%[activator] | nt | nt | nt | nt | 3% | -1% | -5%
COC(=O)c1ccc(COc2ccccc2OC)o1 | 23% | nt | nt | nt | nt | -2% | 1% | 4%
COc1ccccc1OCC(=O)Nc1cc(NC(=O)COc2ccccc2OC)cc(C(=O)O)c1 | 50%[activator] | nt | 2% | nt | 6% | 3% | 3% | 1%
COCCNC(=O)c1cn(C)c2ccc(S(=O)(=O)N3CCCCC3)cc2c1=O | ? | nt | nt | nt | nt | -16% | -3% | 2%
O=C1c2ccccc2C(Nc2ccc3c(c2)OCCO3)N1c1ccc(Cl)cn1 (stereo not given) | 1% | ? | nt | -6.9% | nt | -51% | -5% | -5%
CCCC(=O)C1=C(O)C(C(=O)OC)C(C)(C)CC1=Nc1cccc([N+](=O)[O-])c1 (stereo not given) | -11% | nt | nt | nt | nt | -18% | 2% | 2%
CC(C)c1ccc(S(=O)(=O)N2CCN(C(=O)Cc3ccsc3)CC2)cc1 | 9% | nt | -5% | nt | -3% | nt | 5% | 6%
Cc1ccc(-c2cc(=O)[nH][nH]2)c(C)c1 | 0% | 2% | 9% | 4.8% | 2% | ? | 1% | 10%
Cc1csc(C(C#N)C(=O)c2ccc(S(=O)(=O)N3CCCC3)cc2)n1 (stereo not given) | -3% | -9% | -3% | -9.1% | 7% | -14% | -9% | -11%
CCOC(=O)c1c(NC(=O)COC(=O)c2cnccn2)sc(C(=O)NC)c1C | 6% | nt | 20% | nt | ? | nt | 4% | -7%
COc1cc(CN2CCCC(N3CCN(c4ccccc4C)CC3)C2)ccc1O (stereo not given) | -10% | nt | -12% | nt | ? | 20% | -1% | 5%
CCN(C(=O)c1ccncc1)c1c(N)n(Cc2ccccc2)c(=O)[nH]c1=O | -19% | nt | ? | nt | 8% | nt | -1% | 15%
Cc1cc(C)cc(NC(=O)COC(=O)CC2CCCC2)c1 | -11% | nt | 11% | nt | 22% | nt | -3% | -1%
COc1ccc2[nH]c3c(=O)n(/N=C/c4ccc(OC)c(CN5CCCC5)c4)c(C)nc3c2c1 | -10% | nt | nt | nt | nt | 8% | 0% | -3%
Cc1cc([N+](=O)[O-])ccc1NC(=O)c1csc(C)c1C | 25% | nt | 22%[46.1 µM] | nt | -18%[46.1 µM] | -9% | ? | -3%
COc1ccccc1C(=O)NC(C)c1cccc2ccccc12 (stereo not given) | 0% | nt | -17% | nt | ? | -70% | -10% | -16%
Cc1ccccc1OCCC(=O)OCC(=O)NC1CC1 | -5% | nt | ? | nt | -1% | nt | -2% | 0%
COc1ccc(N/C(=C(/C(Cl)=C(Cl)Cl)[N+](=O)[O-])n2nnc3ccccc32)cc1 | nt | -8% | nt | -5.9% | -1% | -1% | -4% | nt
COc1ccc(CCNC(=O)CN(C)S(=O)(=O)c2ccc(OC)cc2)cc1 | -20% | nt | -6% | nt | ? | -16% | ? | -22%
CCOc1cc(NC(=O)c2cccs2)c(OCC)cc1NC(=O)c1ccccn1 | -9% | nt | 0% | nt | -2%[46.1 µM] | 1% | 1% | -12%
N#CCN(CC#N)C(=O)C1c2ccccc2Oc2ccccc21 | -5% | nt | ? | nt | 3%[46.1 µM] | 7% | -3% | 4%

Exported as tab-separated lines: 4 of the compounds above.
structure	2A StopGo	Cruzain inh noDet	LASV entry inh	Cruzain Triton	MARV entry inh	NS1 inh	SARS PLP yeast	RE007 growth inh
COc1ccccc1C(=O)NC(C)c1cccc2ccccc12 (stereo not given)	0%	nt	-17%	nt	?	-70%	-10%	-16%
Cc1ccccc1OCCC(=O)OCC(=O)NC1CC1	-5%	nt	?	nt	-1%	nt	-2%	0%
COc1ccc(N/C(=C(/C(Cl)=C(Cl)Cl)[N+](=O)[O-])n2nnc3ccccc32)cc1	nt	-8%	nt	-5.9%	-1%	-1%	-4%	nt
COc1ccc(CCNC(=O)CN(C)S(=O)(=O)c2ccc(OC)cc2)cc1	-20%	nt	-6%	nt	?	-16%	?	-22%

The list goes on:
SMILES | 2A StopGo | Cruzain inh noDet | LASV entry inh | Cruzain Triton | MARV entry inh | NS1 inh | SARS PLP yeast | RE007 growth inh
Cc1occc1C(=O)N(Cc1nc(-c2ccccc2)no1)C(C)C | -22% | nt | nt | nt | nt | -4% | 1% | 1%
Cc1cccc(-c2cc(N)n(-c3ccccc3)n2)c1 | 5% | nt | ? | nt | ? | nt | -4% | -2%
CCOC(=O)NC(c1ccc(C(C)C)cc1)C(Cl)(Cl)Cl (stereo not given) | -15% | -5% | ? | -7.8% | -60% | -25% | -53% | -18%
COc1ccc(CCNC(=O)COc2cccc3c2OC(C)(C)C3)cc1OC | ? | nt | -18% | nt | -5% | nt | -5% | 19%
CCCCCCC1/C(=N\NC(=O)c2ccccc2)CCC1C(=O)OC (stereo not given) | -22% | nt | nt | nt | nt | -6% | 0% | -1%
COc1ccc(NC(=O)CSc2nnc(-c3cccnc3)o2)cc1 | 2% | 4% | -1% | 0.5% | 24% | 0% | 6% | 4%
CCc1ccc(NC(=O)CCS(=O)(=O)c2ccc3c(c2)n(C)c(=O)c(=O)n3C)cc1 | -11% | 3% | 23%[46.1 µM] | -3.8% | 1%[46.1 µM] | nt | nt | nt
Cc1ccc(NNC(=O)c2c(C)noc2C)cc1Cl | 32%[activator] | nt | nt | nt | nt | -64% | -5% | 36%
Cc1cccc(OC(=O)C2C(c3ccccc3)C(C(=O)O)C2c2ccccc2)c1 (stereo not given) | -13% | ? | 6% | -9.0% | -16% | 3% | -25% | 15%
Cc1ccc(C)c(NC(=S)Nc2cccnc2)c1 | -10% | nt | -3% | nt | ? | nt | 1% | 0%
O=C(NCc1cccs1)C1CC1 | 5% | nt | 9% | nt | 23%[46.1 µM] | 4% | 5% | -7%
CSc1ncc(Cl)c(C(=O)Nc2c(C(=O)Nc3cccc(Cl)c3)oc3ccccc23)n1 | -5% | -7% | 4%[46.1 µM] | -2.4% | 2%[46.1 µM] | nt | nt | nt
CCOCc1[nH]c(=S)[nH]c(=O)c1Cc1ccc(OCC)cc1 | 7% | nt | 4% | nt | -19%[46.1 µM] | 11% | 0% | -13%
Cc1ccc(C(NC(N)=O)c2ccccc2C)cc1 (stereo not given) | nt | 2% | 3% | 4.1% | 10% | 6% | -7% | 12%
CCOC(=O)C1=C(C)Nc2nc(SCC(=O)OC)nn2C1c1cc(F)cc(F)c1 (stereo not given) | -2%&0% | -1% | -3%&11% | -2.0% | -3%&-8% | -13% | 2% | 3%&-1%
COC(=O)c1ccc(Sc2ccccc2NS(=O)(=O)c2ccc(NC(C)=O)cc2)nc1 | -5% | -1% | 14% | 5.8% | 11% | 4% | 1% | -1%
C(=C\c1nc(-c2cccnc2)no1)/c1ccccc1 | 8% | nt | ? | nt | -7% | 2% | 1% | -6%
CC(C)(C)NC(=O)C1CC(=O)OC12CCOC(C)(C)C2 (stereo not given) | -10% | nt | nt | nt | nt | 4% | -1% | 12%
CCCCn1c(O)c(C(CC)=NCCCN(C)C)c(=O)[nH]c1=O | -8% | -11% | 1% | -0.6% | 4% | -4% | -4% | -4%
Cc1cccc(C)c1NC(=O)CN(C)C(=O)c1cccc(-n2cccc2)c1 | -3% | nt | 18% | nt | -4% | nt | 7% | 0%
OCCC1CN(Cc2nc3c(s2)CCCC3)CCN1CCc1ccccc1 (stereo not given) | -6% | nt | nt | nt | nt | 3% | 1% | -2%
CCOc1ccc(-c2nc(S(=O)(=O)c3ccccc3)c(NCc3cccnc3)o2)cc1 | 0% | 4% | -12% | -8.9% | -27% | ? | 3% | 8%
COc1ccc(C(=O)Nc2ccc(Cl)cc2C(=O)NCc2ccco2)cc1 | 8% | -19% | -11% | -9.7% | ? | 13% | -1% | -4%
CC1CC1C(=O)OCC(=O)Nc1cccc(Br)c1 (stereo not given) | 17% | nt | 1% | nt | -2%[46.1 µM] | nt | 1% | 14%
COc1cccc(-n2nnnc2SCC(=O)NCCc2ccc(OC)c(OC)c2)c1 | -29% | nt | -19% | nt | ? | -7% | 0% | 11%
CCOc1ccc(CCNC(=O)c2cccc3c2C(=O)N(CCOC)C3)cc1OCC | -5% | nt | -2% | nt | 0% | 3% | 1% | -3%
C/C(=C\C(=S)Nc1ccccc1)Nc1cccc2ccccc12 | 21% | ? | -16% | -2.1% | ? | 3% | -15% | -26%
CC(=O)c1cccc(N=Cc2c(O)c3ccccc3oc2=O)c1 | -4% | nt | 8%[46.1 µM] | nt | 8%[46.1 µM] | 7% | 0% | 11%
